Screening data: PubChem, National Center for Advancing Translational Sciences (NCATS)
Rango release inh = qHTS Assay for Inhibitors of RanGTP induced Rango (Ran-regulated importin-beta cargo) - Importin beta complex dissociation. hit rate 0.071% among 340,000. Potency, µM (highest dose often 46.1 µM), for the others: at the top dose activity change, negative = inhibition. Snurportin-1 (Homo sapiens) + GTP-binding nuclear protein Ran (Homo sapiens) + Importin …. Biochemical FRET Rango-importin beta, RanGTP-induced dissociation; active means falling FRET ratio curve, often poorly fitted, with flat reads before Ran was added; inconclusive means other falling curves, or compound fluorescence or quenching; inactive means flat or rising ratio curve;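 further: potency means the concentration at half of the fitted maximal effect; % of control where 0% means no effect; nearly all actives have a fitted effect of over 45% in size; -100% = wells without RanGTP and RCC1; the record marks most hits as doubtful in a second field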
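Two FRET readings bracket the reaction: one 5 min after compound meets Rango–importin beta, another 45 min after RanGTP-RCC1 (0.6 uM Ran, 0.2 uM RCC1, 2 mM GTP) is added. Only the second defines inhibition.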
miR-21 FLuc = qHTS Assay for Modulators of miRNAs and/orActivators of miR-21. HeLa miR-21 FLuc reporter, luciferase, 48 h. Potency, µM (doses to about 38.3 µM), for inactives: at the top dose reporter change, positive = more light. 340,000 tested, under 10 active. AID 2288, 2010; active = well fitted rising curve with a large enough effect; inconclusive = small, poorly fitted or top-dose-only effect; inactive = no such curve, though single readings can be large or run the other way;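 further: % of control where 0% means no effect; miR-21 action dims this reporter so a rising signal means less miR-21 action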
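HeLa miR-21-FLuc reporter line, endogenous miR-21; 2000 cells/well in DMEM/10% FBS; compound titration up to ~40uM final, 48 h, 37 degree Celsius; luciferase detection reagent, 15 min lysis, CCD luminescence.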
Rango complex inh = qHTS Assay for Inhibitors of Rango (Ran-regulated importin-beta cargo) - Importin beta complex formation; hit rate 0.031% among 340,000; Rango CFP/YFP FRET sensor + importin beta, 45 min; Potency, µM (highest dose often 92.2 µM), inactives show top-dose inhibition of complex formation; Importin subunit beta-1 (Homo sapiens), Q14974; AID 540263, 2011; active = rising FRET ratio curve, often small or poorly fitted; inconclusive = mostly compound fluorescence or quenching in the first reads; inactive = flat curves in all reads;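 further: potency means the concentration at half of the fitted maximal effect; 0% = DMSO wells and 100% = buffer wells lacking importin beta; nearly all actives have a fitted effect of over 15% in size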
Target sequence (Q14974 whole entry, looked up): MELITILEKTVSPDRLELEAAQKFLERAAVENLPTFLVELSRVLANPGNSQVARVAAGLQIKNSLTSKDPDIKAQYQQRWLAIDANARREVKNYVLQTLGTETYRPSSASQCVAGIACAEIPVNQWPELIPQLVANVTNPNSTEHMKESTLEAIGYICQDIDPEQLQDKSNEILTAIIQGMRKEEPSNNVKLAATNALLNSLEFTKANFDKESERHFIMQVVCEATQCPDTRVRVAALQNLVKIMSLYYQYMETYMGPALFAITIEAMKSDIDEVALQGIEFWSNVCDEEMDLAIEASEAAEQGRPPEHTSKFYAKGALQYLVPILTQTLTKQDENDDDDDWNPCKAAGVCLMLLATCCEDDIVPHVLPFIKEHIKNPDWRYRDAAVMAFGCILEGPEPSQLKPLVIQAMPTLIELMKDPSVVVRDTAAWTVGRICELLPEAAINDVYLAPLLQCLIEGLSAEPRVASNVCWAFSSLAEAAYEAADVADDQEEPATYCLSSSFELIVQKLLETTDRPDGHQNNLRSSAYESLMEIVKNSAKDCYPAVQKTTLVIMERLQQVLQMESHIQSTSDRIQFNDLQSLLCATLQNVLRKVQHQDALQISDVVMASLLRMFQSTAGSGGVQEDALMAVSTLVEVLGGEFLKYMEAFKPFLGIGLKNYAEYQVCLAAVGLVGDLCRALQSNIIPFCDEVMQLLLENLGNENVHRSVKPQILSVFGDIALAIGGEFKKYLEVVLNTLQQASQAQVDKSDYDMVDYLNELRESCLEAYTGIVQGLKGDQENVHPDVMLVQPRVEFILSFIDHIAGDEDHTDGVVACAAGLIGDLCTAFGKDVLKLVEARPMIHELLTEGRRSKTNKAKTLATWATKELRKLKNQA
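FRET biosensor (snurportin 1 IBB flanked by EYFP and cerulean), 50 nM, with compound 5 min, then 0.125 microM importin beta in PBS, 1 mM DTT, 0.02% Tween-20, 0.1% BSA. CFP/YFP ratio read after 45 min at room temperature; pre-read flags interference.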
GLA inh pH 4.5 = qHTS Assay for Inhibitors of Human alpha-Galactosidase at pH 4.5; Alpha-galactosidase A (Homo sapiens), P06280; purified enzyme, 4-MU-alpha-Gal fluorescence, pH 4.5; activity change, negative = inhibition, % at 105 µM; 230,000 tested, under 10 active; inconclusive = small, poorly fitted or top-dose-only inhibition, or a rising curve; inactive = flat fitted curve, though single readings scatter; no compound was filed as active;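 further: 0% = full activity with enzyme and -100% = basal without enzyme; dose as in the result columns while the protocol names 77 µM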
Starred values were filed as active, the others as inactive; ? = inconclusive; . = not tested or not shown; [ ] = remark or other dose.

Rango release inh	SMILES	miR-21 FLuc	Rango complex inh	GLA inh pH 4.5
-9.8%	CCOC(=O)C1=C(COC(=O)/C=C/c2ccc(OCC)c(OC)c2)NC(=O)NC1C (stereo not given)	.	0.8%	.
?	Cc1ccc(S(=O)(=O)NCCC(=O)NNc2c(F)c(F)cc(F)c2F)cc1	.	-0.3%	.
-6.0%	CC1(C)Cc2c(sc(/N=C/N3CCCCC3)c2C#N)C(C)(C)N1	-18.6%	-2.9%	-2.5
21.6%	COc1ccc(-c2csc(NC(=O)C3CCCO3)n2)cc1 (stereo not given)	-32.9%	-0.3%	-11.6
-12.5%	COc1ccc2[nH]c(=O)c(CN(Cc3ccc(C)cc3)Cc3nnnn3CC3CCCO3)cc2c1 (stereo not given)	-31.8%	-1.0%	-3.0
-0.7%	O=C(CN1C(=O)/C(=C/c2ccccc2)Sc2ccccc21)NCCCN1CCOCC1	-1.2%	-3.1%	.
5.8%	CN1C(=S)SC(N2OC3C(=O)N(c4ccccc4)C(=O)C3C2c2ccc(Cl)cc2)C1(C)C (stereo not given)	-3.5%	-3.8%	3.4
12.6%	COc1ccc(/C=C/C(=O)OCc2csc(-c3ccccc3)n2)cc1OC	-22.9%	1.9%	-5.9
0.9%	c1coc(C2Nc3ccccc3C3OCCC23)c1 (stereo not given)	-6.9%	0.8%	-3.8
-2.3%	Cc1ccc(C(C)NC(=O)c2cc(C)oc2C)cc1 (stereo not given)	-1.7%	1.0%	4.5
11.6%	Cc1ccc(CNC(=O)c2cccc(S(C)(=O)=O)c2)cc1	-2.1%	-1.2%	5.7
13.7%	COc1ccc(-c2noc(C(C)NS(=O)(=O)c3ccc(NC(C)=O)cc3)n2)cc1 (stereo not given)	-1.8%	2.6%	.
7.9%	COc1cc2c(cc1OC)/C(=C/c1ccc(Cl)cc1)C(=O)OC2	-8.2%	4.7%	.
-2.4%	CC1Cc2ccccc2N1C(=S)NC(=O)c1cccc(Br)c1 (stereo not given)	2.9%	-1.8%	6.7
1.7%	O=C(c1ccc(Br)cc1)N(Cc1ccco1)C1CCS(=O)(=O)C1 (stereo not given)	-0.2%	-0.4%	.

Rango release inh	SMILES	miR-21 FLuc	Rango complex inh	GLA inh pH 4.5
-0.8%	COc1ccc(CNC(=O)CSc2nnc(-c3ccc(NC(C)=O)cc3)n2C)cc1	-7.1%	2.7%	5.2
-10.6%	CC(=O)N1CCc2cc(S(=O)(=O)CCC(=O)N3CCN(C(=O)c4ccco4)CC3)ccc21	8.7%	4.3%	2.3
-1.6%	CCOc1ccc(Nc2nc3cc(S(=O)(=O)CC)ccc3o2)cc1	-30.8%	1.2%	4.0
15.4%	COc1ccc(C2NC(Cc3ccccc3)(C(=O)O)C3C(=O)N(c4ccccc4OC)C(=O)C23)cc1 (stereo not given)	-1.5%	1.0%	7.0[21.1 µM]
-6.0%	CN1CCN(C(=O)CCCN2C(=O)/C(=C/c3ccccc3)SC2=S)CC1	?	3.6%	.
-11.4%	CN(C)S(=O)(=O)N(CC(=O)NCCSCc1ccc(Cl)cc1)c1ccccc1	1.0%	1.2%	0.2
37.6%	O=C(COC(=O)/C=C/c1ccc([N+](=O)[O-])cc1)NCc1ccc2c(c1)OCO2	0.0%	-1.5%	2.3
-3.6%	CCC(CC)C(=O)Nc1ccc(Sc2ccc([N+](=O)[O-])cc2)cc1	?	4.8%	7.3
6.7%	O=C(O)C1CCC(CN(Cc2cccc(Br)c2)C(=S)Nc2ccccc2F)CC1 (stereo not given)	4.1%	0.4%	-0.1
-13.6%	O=C(NC(=O)c1c(F)cccc1F)Nc1cccc(Oc2ncc(Cl)cn2)c1	.	1.5%	.
6.6%	O=C(/C=C/c1cccs1)c1cc(Br)ccc1OC(=O)N1CCOCC1	28.2%	0.4%	-23.2
-23.5%	Cc1cc(C(=O)NNC(=O)[C@H](C)NC(=O)c2ccc(Br)cc2)c(C)o1	.	2.6%	.
6.1%	CCOC(=O)C1=C(Nc2ccccc2)CC(C)(O)C(C(=O)OCC)C1c1ccccc1 (stereo not given)	-5.4%	-1.4%	-1.6
2.1%	O=c1c(N=Nc2ccc(O)cc2)c(-c2ccccc2)[nH]n1-c1ccc([N+](=O)[O-])cc1	-1.1%	-0.8%	1.6
-0.6%	CCOC(=O)c1ccc(NC(=S)N2CCN(c3ccc(N4CCOCC4)nn3)CC2)cc1	3.1%	-4.5%	6.5

Rango release inh	SMILES	miR-21 FLuc	Rango complex inh	GLA inh pH 4.5
-5.5%	CC(=O)Oc1ccc(/C=C(\NC(=O)c2ccco2)C(=O)NCc2ccccc2)cc1	0.1%	5.4%	.
-16.5%	Cc1ccc([N+](=O)[O-])cc1S(=O)(=O)Nc1ccc(O)c(Sc2ncn[nH]2)c1	-6.1%	7.5%	.
-8.7%	Cc1ccc(S(=O)(=O)N(C)CC(=O)N2CCCCCCC2)cc1	.	-0.3%	.
8.9%	COc1ccc(-c2noc(COc3ccccc3OC)n2)cc1OC	-38.1%	0.0%	3.0
17.8%	O=C(Cc1csc(NC(=O)Nc2ccc(Cl)cc2)n1)NCc1cccnc1	.	2.7%	.
?	COc1ccccc1Nc1nnc(SC(C)C(=O)NC2CC2)s1 (stereo not given)	.	-0.4%	.
29.9%	Cn1cc(C(=O)c2ccccc2C(=O)O)cc1C(=O)C(Cl)(Cl)Cl	-0.3%	-4.9%	.
7.0%	O=C(N/N=C/c1ccccc1F)c1cccc2ccccc12	-13.4%	0.1%	.
-16.0%	CCN1CCN(CCNC(=O)c2ccc(CS(=O)(=O)c3c(Cl)cccc3Cl)o2)CC1	-17.2%	-0.2%	-2.6
5.0%	O=C(O)c1ccc(C[n+]2c(-c3ccccc3)csc2Nc2ccccc2)cc1	-2.2%	0.1%	0.3
0.8%	CCCCn1c(O)c(N=Nc2ccccn2)c2ccccc21	-2.8%	11.1%	-7.8
-3.6%	COC(=O)C1C(c2ccccc2)C(C(=O)N2CCN(C)CC2)C1c1ccccc1 (stereo not given)	0.2%	-1.0%	-1.0
-16.9%	O=C(OCc1ccc(COC(=O)c2ccccn2)cc1)c1ccccn1	-2.5%	2.0%	-6.9
0.4%	CCn1c(SCC(=O)Nc2cc(C)nn2-c2ccccc2)nnc1-c1cccs1	7.1%	-2.0%	-21.9
11.1%	C=CCN1C(=O)C2C(C(=O)NC)C3(C)C=CC2(O3)C1C(=O)NCc1ccc(OC)cc1 (stereo not given)	0.4%	-2.2%	-4.5

Single entries from above:
COc1ccccc1Nc1nnc(SC(C)C(=O)NC2CC2)s1 (stereo not given) – Rango complex inh: -0.4%
O=C(Cc1csc(NC(=O)Nc2ccc(Cl)cc2)n1)NCc1cccnc1 – Rango complex inh: 2.7%
COC(=O)C1C(c2ccccc2)C(C(=O)N2CCN(C)CC2)C1c1ccccc1 (stereo not given) – GLA inh pH 4.5: -1.0
O=C(OCc1ccc(COC(=O)c2ccccn2)cc1)c1ccccn1 – GLA inh pH 4.5: -6.9

More records
Rango release inh	SMILES	miR-21 FLuc	Rango complex inh	GLA inh pH 4.5
-3.1%	O=C(NNC(=O)C1COc2ccccc2O1)c1ccccc1 (stereo not given)	-11.0%	-0.2%	8.5
-1.2%	OCc1nc2ccccc2n1CCCOc1ccccc1	-44.6%	3.3%	-5.4
-12.1%	COc1ccc(-c2cn3nc(SCC(=O)NC4CCCCC4)ccc3n2)cc1	-49.4%	0.0%	.
-8.2%	COc1cccc(NC(=O)CC2S/C(=N\S(=O)(=O)c3ccccc3)N(c3ccccc3)C2=O)c1 (stereo not given)	-2.1%	4.6%	1.4
-8.0%	O=C(c1ccc(CN2CCc3ccccc3C2)cc1)N1CCN(c2ccccc2)CC1	2.6%	0.7%	1.3
-16.1%	COc1ccc(CNC(=O)C(c2ccco2)N(Cc2cccs2)C(=O)Cc2cccs2)cc1 (stereo not given)	-3.9%	0.3%	-10.9
-0.6%	OCCC1CN(Cc2nc3ccc(F)cc3[nH]2)CCN1C1CCCC1 (stereo not given)	-0.8%	-0.6%	1.8
-3.7%	CCOc1ccc(NS(=O)(=O)c2ccc(NC(=O)c3ccccc3C(=O)O)cc2)cc1	.	3.8%	.
-5.5%	COC(=O)C1=C(C)N(Cc2ccccc2)C(=NCCc2ccccn2)N[C@H]1c1cccc(C(F)(F)F)c1	23.9%	?	.
-4.8%	Cn1c(CNC(=O)c2ccco2)nnc1SCC(=O)Nc1c(F)cc(F)cc1Br	5.4%	2.8%	3.6
-3.3%	N/C(=N\OC(=O)CC1CCCCC1)c1ccccn1	-48.2%	5.3%	1.7
-5.8%	O=C(O)c1ccc(-n2cncn2)c([N+](=O)[O-])c1	0.2%	-2.0%	-0.2
1.2%	O=C(NN1C(=O)/C(=C/c2ccc(O)c([N+](=O)[O-])c2)SC1=S)c1ccccc1Cl	0.7%	?	-15.1
12.0%	CCOc1ccc(-n2c(SCc3cc(=O)oc4cc(C)ccc34)nnc2-c2cccnc2)cc1	-5.6%	-3.3%	-9.2
1.1%	CCOC(=O)c1ccc(NC(=S)Nc2ccccc2)cc1	-25.8%	-2.0%	-1.1

In the list so far, 9 have a furan ring, fused or not.
Rango release inh	SMILES	miR-21 FLuc	Rango complex inh	GLA inh pH 4.5
0.9%	c1coc(C2Nc3ccccc3C3OCCC23)c1 (stereo not given)	-6.9%	0.8%	-3.8
-2.3%	Cc1ccc(C(C)NC(=O)c2cc(C)oc2C)cc1 (stereo not given)	-1.7%	1.0%	4.5
1.7%	O=C(c1ccc(Br)cc1)N(Cc1ccco1)C1CCS(=O)(=O)C1 (stereo not given)	-0.2%	-0.4%	.
-10.6%	CC(=O)N1CCc2cc(S(=O)(=O)CCC(=O)N3CCN(C(=O)c4ccco4)CC3)ccc21	8.7%	4.3%	2.3
-23.5%	Cc1cc(C(=O)NNC(=O)[C@H](C)NC(=O)c2ccc(Br)cc2)c(C)o1	.	2.6%	.
-5.5%	CC(=O)Oc1ccc(/C=C(\NC(=O)c2ccco2)C(=O)NCc2ccccc2)cc1	0.1%	5.4%	.
-16.0%	CCN1CCN(CCNC(=O)c2ccc(CS(=O)(=O)c3c(Cl)cccc3Cl)o2)CC1	-17.2%	-0.2%	-2.6
-16.1%	COc1ccc(CNC(=O)C(c2ccco2)N(Cc2cccs2)C(=O)Cc2cccs2)cc1 (stereo not given)	-3.9%	0.3%	-10.9
-4.8%	Cn1c(CNC(=O)c2ccco2)nnc1SCC(=O)Nc1c(F)cc(F)cc1Br	5.4%	2.8%	3.6

Carrying on.
Rango release inh	SMILES	miR-21 FLuc	Rango complex inh	GLA inh pH 4.5
-19.5%	O=C(NCc1nc2ccccc2[nH]1)C1=C[C@@H](c2csc3ccccc23)C[C@@H](OCCCCO)O1	6.5%	-1.4%	-16.2
0.0%	Oc1cccc(C(=S)N2CCC(Cc3ccccc3)CC2)c1	3.0%	-1.0%	.
-0.3%	Cc1c(NC(=O)Nc2ccc(Cl)c(Cl)c2)sc(=S)n1C	.	0.1%	.
11.5%	COCCn1c(-c2ccc(OC)cc2)cnc1SCC(=O)Nc1cc(C)on1	4.0%	0.1%	-4.9

Only part of the results is shown. The share of hits here may be higher or lower than overall.
